eIF4H inh: inhibitors of RNA binding by human eIF4H. Q15056. eIF4H fluorescence polarization binding assay. inhibition, % at 35 µM. actives 0.94% (n = 290,000);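 active means 50% or more with normal probe brightness, or confirmed in later tests; inconclusive means above 50% with abnormal brightness, or retests that disagree; inactive means below 50% or failed in later tests; about a fifth of its hits are not listed in these tables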;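 further: calls also rest on retests at 20 µM and on dose response follow-up; 0% = protein and probe with vehicle and 100% = probe without protein; strong numbers were not always called active; many hits fall short of the cut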
PABP FP inh: blocks human PABP binding to poly(A) RNA | fluorescence polarization | AID 2014 | actives 1% (n = 290,000) | inhibition, % at 35 µM | P11940;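 active means 50% or more with normal probe brightness, or confirmed in later tests; inconclusive means above 50% with abnormal brightness, or retests that disagree; inactive means below 50% or failed in later tests; about a fifth of its hits are not listed in these tables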;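 further: calls also rest on retests at 20 µM and on dose response follow-up; controls were probe without protein and protein plus probe with vehicle; some compounds called inactive have numbers as strong as hits; many hits fall short of the cut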
Target sequence (P11940 whole entry, looked up): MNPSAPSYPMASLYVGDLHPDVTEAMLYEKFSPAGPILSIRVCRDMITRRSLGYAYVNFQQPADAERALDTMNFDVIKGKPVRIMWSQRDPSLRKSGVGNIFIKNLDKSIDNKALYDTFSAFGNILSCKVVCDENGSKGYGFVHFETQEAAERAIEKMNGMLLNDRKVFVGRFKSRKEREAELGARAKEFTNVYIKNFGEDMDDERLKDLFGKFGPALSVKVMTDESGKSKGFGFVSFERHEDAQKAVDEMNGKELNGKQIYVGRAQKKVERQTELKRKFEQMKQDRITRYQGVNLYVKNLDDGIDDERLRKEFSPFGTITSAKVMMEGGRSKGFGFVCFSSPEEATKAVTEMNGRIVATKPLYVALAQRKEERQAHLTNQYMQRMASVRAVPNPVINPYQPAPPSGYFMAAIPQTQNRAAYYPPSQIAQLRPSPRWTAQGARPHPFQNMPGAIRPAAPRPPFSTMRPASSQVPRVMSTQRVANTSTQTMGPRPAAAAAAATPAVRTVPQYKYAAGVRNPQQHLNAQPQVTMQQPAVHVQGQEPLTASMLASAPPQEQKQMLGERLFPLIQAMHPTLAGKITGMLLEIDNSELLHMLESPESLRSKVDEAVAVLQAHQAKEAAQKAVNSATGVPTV
CSC inhib: cancer stem cell inhibition. cancer stem cell-like cells viability, luminescence. inhibition, % at 7.5 µM. actives 1.1% (n = 300,000). AID 2717;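 active means mean at 75% or more and at least half the replicates too; inconclusive means mean and replicates disagree; tested in HMLE shEcad cells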;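 further: 0% = median of negative and 100% = median of positive control wells; the first replicate is given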
Rce1 inhib: blocks yeast Ras-converting enzyme. Q03530. yeast membranes, quenched prenylated peptide cleavage fluorescence. calls only. actives 0.27% (n = 290,000). AID 2563;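 active means fall in fluorescence gain of 50% or more versus controls, with final raw signal at or below 3038400; inconclusive means same 50% fall but final raw signal above 3038400; inactive means fall in fluorescence gain under 50%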;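 further: plate controls were neutral control wells for no effect and wells lacking membranes for full effect; tested at 10 µM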
Target sequence (Q03530 whole entry, looked up): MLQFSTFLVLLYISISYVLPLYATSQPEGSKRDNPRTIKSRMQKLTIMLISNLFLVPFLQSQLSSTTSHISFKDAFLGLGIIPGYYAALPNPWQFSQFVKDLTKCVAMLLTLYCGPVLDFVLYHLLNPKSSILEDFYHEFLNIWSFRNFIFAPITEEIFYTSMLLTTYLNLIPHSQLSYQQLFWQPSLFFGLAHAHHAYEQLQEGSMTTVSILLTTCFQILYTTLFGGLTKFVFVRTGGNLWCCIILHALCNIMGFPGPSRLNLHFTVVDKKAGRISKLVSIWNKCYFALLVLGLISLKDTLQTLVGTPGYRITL
Yeast UUG start: alters start codon recognition fidelity in yeast; S. cerevisiae UUG-firefly luciferase reporter, luminescence/redox ratio; activity score, % at 18.7 µM; actives 0.13% (n = 350,000); AID 602363;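 active means replicate mean at a twofold rise or more, about +100% in these data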;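 further: firefly luciferase made from a UUG start codon reports start codon fidelity; reporter light over untreated wells divided by growth signal over untreated wells; some hits fall short of that in this replicate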
MT1-MMP act inh: MT1-MMP (human) activation inhibition; HT1080 RFP-PRO-GFP cells, GFP/RFP ratio fluorescence, overnight; percent of plate control window, DMSO zero; AID 651647; P50281; actives 0.061% (n = 360,000); GFP/RFP ratio change, % at 20 µM;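 active means GFP/RFP ratio change of at least 30% with cell ATP level not reduced by more than half and red fluorescence within 50% of control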; further: strong numbers were not always called active
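Assay system: HT1080 RFP-PRO-GFP cells. Benchmarks: DMSO vehicle wells and RFP-L50D-GFP reporter cell wells. Times: overnight cell settling, then overnight compound exposure, 37 °C, 5% CO2. Compound: 20 µM single dose, 1% DMSO. Read-out basis: GFP/RFP fluorescence ratio.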
Env fusion inh: HIV envelope-mediated fusion inhibition | AID 651610 | actives 1.1% (n = 360,000) | inhibition, % at 12.3 µM | HeLa-JRFL Env/CEM21 cell fusion, luciferase;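 active means mean replicate inhibition score of at least 50 and every replicate individually at or above 50; inconclusive means only one of the two criteria met; inactive means mean below 50 and not all replicates reaching 50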;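 further: 0% = plate neutral controls and 100% = maraviroc near 300 nM; one replicate is shown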
eIF4H inh retest: second read-out of eIF4H inh, no call of its own (marks repeat the call); inhibition, %; compound at 20 µM; confirmation average;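 mean of two retest wells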
PABP FP inh retest: also measured in PABP FP inh; calls as there; inhibition, %; compound at 20 µM; confirmation repeats;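 mean of two retest wells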
MT1-MMP act inh RFP: second read-out of MT1-MMP act inh, no call of its own (marks repeat the call); RFP signal change, %; measured here: RFP expression control read;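 0 = vehicle wells; hits needed this value within 50% of zero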
Active calls of the source: *; i = inactive; u = inconclusive; x = no result given; & = joins results of further samples.

SMILES | eIF4H inh | PABP FP inh | CSC inhib | Rce1 inhib | Yeast UUG start | MT1-MMP act inh | MT1-MMP act inh RFP | Env fusion inh | others
Cc1c(/C(O)=C2/C(=O)C(=O)N(CCN3CCOCC3)C2c2cccnc2)cnn1-c1ccccc1 (stereo not drawn) | -5 | -4 | -6 | i | -20 | 1 | 1 | x
COCCCNS(=O)(=O)c1ccc2c(c1)CCN2C(C)=O | -1 | 0 | -9 | i | -7 | 11 | -5 | -35
O=C(CSc1nc2c(c(=O)[nH]1)CCCC2)Nc1ccc(Cl)cc1F | -3 | 6 | 11 | i | -1 | 7 | -1 | x
Brc1ccc(N=NNc2ccccc2)cc1 | -1 | -2 | 42 | i | -7 | 0 | 2 | -66
Cc1ccc(-c2nnc(Nc3ccc4c(c3)nc(C)n4C)c3ccccc23)cc1 | -16 | -7 | 4 | x | -13 | 11 | -2 | -14
COC(=O)C(=O)/C=C(\O)c1c(C)cc(C)cc1C | 11 | -4 | -7 | i | x | 8 | 3 | -10
COc1ccc(CCNC(=O)C2CCCN2C(=O)NC2CCCCC2)cc1OC (stereo not drawn) | -8 | 0 | -14 | i | -17 | 4 | 0 | -31
O=C(NNC(=S)Nc1ccccc1)c1ccccc1[N+](=O)[O-] | 10 | 4 | -5 | i | -31 | 3 | 2 | -86
O=C(Nc1ccccc1)N1CCC(=S)Nc2ccccc21 | 3 | -12 | -14 | i | x | 2 | 5 | x
COCCn1c(SCc2ccc(OC)c(F)c2)nnc1-c1ccncc1 | 12 | 9 | -3 | i | -23 | -5 | -1 | -8
CC(=O)c1cc(-c2ccccc2)n(CC(=O)Nc2cc(C)cc(C)c2)c1C | 4 | -14 | 1 | i | -27 | -1 | 1 | 13
COC(=O)CSc1nnc(CNC(=O)c2cccs2)n1-c1cc(OC)ccc1OC | -2 | -7 | -3 | x | x | -2 | -2 | x
Cc1ccccc1OCC(=O)Nc1cccc2nsnc12 | -9 | -2 | -18 | i | -1 | -1 | 0 | x
Cc1ccc(C)c(NS(=O)(=O)c2ccc3[nH]c(=O)oc3c2)c1 | u | 42* | 7 | i | -2 | 5 | -1 | -5 | PABP FP inh retest=96*
Cc1cccc(C(=O)OC(C)C(=O)Nc2ccc(S(=O)(=O)Nc3ncccn3)cc2)c1C (stereo not drawn) | x | x | 2 | x | -8 | 0 | 0 | x
O=C(O)Cc1ccc(C(=O)c2ccc(Cl)cc2Cl)s1 | 6 | -4 | -9 | i | -21 | 3 | 7 | 9
Cc1nc(-c2ccc(Cl)cc2)sc1C1(C)CC(c2cccc(F)c2)=NO1 (stereo not drawn) | -1 | 5 | 18 | i | -13 | 3 | 2 | 1
COc1ccc(C2=Nn3c(nnc3-c3ccncc3)SC2)cc1 | -2 | -5 | 2 | i | -23 | -10 | -9 | 96*
CCOC(=O)c1c(C)n(C)c2ccc(OC)c(NC(=O)CN3CCN(Cc4ccccc4)CC3)c12 | -4 | -5 | 6 | x | 8 | -22 | -5 | -50
O=C(O)CCc1nnc(SCC(=O)Nc2ccc(Br)cc2)[nH]c1=O | 1 | -8 | 5 | i | x | 1 | 5 | 9
Cn1cc([N+](=O)[O-])c(C(=O)N/N=C/c2ccncc2)n1 | 1 | 0 | 25 | i | -14 | 0 | 6 | -46
CCN(CC)S(=O)(=O)c1ccc(S(=O)(=O)Nc2c(C)nn(C)c2C)cc1 | x | x | -5 | i | 7 | -2 | -25 | x
Cc1ccc(-c2nnc(N3CCC(C)CC3)c3ccccc23)cc1 | -7 | -2 | 7 | i | x | -3 | -13 | 22
Cc1ccc(S(=O)(=O)Nc2cccc(C(=O)NCCN3CCOCC3)c2)cc1F | x | x | -16 | x | -6 | 10 | 2 | -9
O=C(NC1CCCC1)c1cccc(S(=O)(=O)N2CCOCC2)c1 | x | x | x | x | -24 | -1 | 2 | 0
COc1ccc(C(=O)COC(=O)c2ccc(OC)c(OC)c2)cc1OC | -8 | -1 | x | i | -15 | 3 | 0 | x
O=C(O)CCN=C1CCCc2ccccc2N1 | -6 | 1 | -11 | i | -23 | -4 | -1 | -89
CCOc1ccc2nc(N(CCN(CC)CC)C(=O)c3cccc([N+](=O)[O-])c3)sc2c1 | 5 | -5 | 5 | i | -4 | 8 | 2 | 8
COc1ccc(C(CNC(=O)c2oc3ccc(F)cc3c2C)N2CCCCC2)cc1 (stereo not drawn) | -14 | 4 | x | i | -4 | -2 | 2 | -2
CC12CCC(C(=O)NCc3ccccc3)(OC1=O)C2(C)C (stereo not drawn) | 7 | 6 | -18 | i | -20 | -3 | -2 | 6
Cc1ccc(-c2cnn3c(N4CCOCC4)cc(C)nc23)cc1 | -12 | -10 | 5 | i | -23 | -4 | -3 | -59
C#CCOCCOCCOCCNc1nc(N2CCOCC2)nc(N2CCN(C(=O)[C@H](CCCCN)n3cc([C@@H](N)CC(C)C)nn3)CC2)n1 | 19 | 50 | -16 | i | -10 | -1 | 1 | 23
CCC(Br)C(=O)Nc1ccc(OC)cc1 (stereo not drawn) | -5 | 11 | -9 | i | x | -2 | 4 | -11
Cc1ccc(CN(C)C(=O)c2cc(COc3cccc(C(F)(F)F)c3)on2)o1 | -10 | 4 | 20 | i | -12 | 0 | 2 | x
Cc1nn(Cc2ccc(C(=O)Nc3ccccc3F)cc2)c(C)c1Cl | 9 | 5 | 51 | i | -12 | 3 | 3 | 3
Nc1nc(-c2ccccc2)nc2sc3c(c12)CCCC3 | -10 | -6 | -5 | i | -10 | 4 | -3 | i
Cc1oc(-c2cc(F)ccc2F)nc1CN(C)Cc1ccc2nccnc2c1 | -5 | 11 | -1 | i | x | -1 | 4 | -4
CCC(c1nnc(SCC(=O)Nc2cccc(S(N)(=O)=O)c2)n1Cc1ccccc1)N(C)C (stereo not drawn) | -15 | -2 | -19 | i | -12 | -2 | -1 | -10
Cc1nnc(SCc2ccccc2Cl)n1CC1CCCO1 (stereo not drawn) | 3 | -4 | -16 | i | -9 | 1 | 1 | -37
Cc1ccc(S(=O)(=O)NCC(=O)NC2CC2)cc1 | 2 | 6 | -5 | i | -6 | 4 | 4 | 16
O=C(c1cccc(F)c1)N1CCN(Cc2c[nH]c3ccccc23)CC1 | -1 | 8 | 11 | i | -14 | 2 | 9 | x
CCOC(=O)N(Cc1ccccc1)C1CC1 | x | x | x | x | -11 | 0 | -2 | 1
CC(C)(Oc1ccc(CCNC(=O)c2ccc(-c3ccccc3)o2)cc1)C(=O)O | -4 | -3 | 10 | i | -62 | -1 | 6 | 11
Cc1ccc2c(c1C)NC(=O)C2(O)CC(=O)c1ccc2c(c1)OCO2 (stereo not drawn) | -4 | -1 | -14 | i | x | 1 | 1 | -78
O=C(/C=C/Nc1ccc(F)cc1)c1cccs1 | x | x | -2 | i | -53 | 3 | 1 | x
CCCc1nn2c(N)c(/C=C3\C=Nc4ccccc43)c(=O)nc2s1 | 0&86 | 1&9 | 2&-5 | i | -18&-22 | 0&-2 | -1&1 | 2 | eIF4H inh retest=-8;PABP FP inh retest=-2
O=C(Nc1ccccc1C(=O)Nc1ccc2c(c1)OCO2)c1cccs1 | -3 | -8 | x | i | 26 | -7 | -3 | -102
Cn1c(-c2cc(Cl)ccc2O)nc2c1c(=O)[nH]c(=O)n2Cc1ccccc1 | 3 | -11 | 2 | i | x | -4 | -5 | -6
CCOc1ccc2oc(C(=O)OCC(=O)N3CCCC(C)C3)c(C)c2c1 (stereo not drawn) | x | x | -3 | x | -7 | 15 | -7 | 11
Cc1ccc2cc(NC(=O)C3(C)CCN(C)C3)ccc2n1 (stereo not drawn) | x | x | x | x | -9 | 0 | 5 | 2
COC(=O)c1nc(NNC(=O)c2ccccc2)sc1-c1ccccc1 | 2 | 3 | -10 | i | -15 | 3 | 2 | 3
CCn1c(SCC(=O)NCCc2ccccc2)nc2c([nH]c3ccccc32)c1=O | -9 | 1 | 19 | i | -15 | -6 | -4 | 67*
COc1ccc2c(C)cc3n[nH]c(=S)n3c2c1 | -11 | 8 | -8 | i | x | -9 | -9 | 4
Cc1cc2cc3c(cc2nc1SCC(=O)OC(C)C)OCCO3 | -5 | 0 | 3 | i | -13 | -3 | -5 | 29
C=CCn1nc(-c2ccccc2)c(N2CCCCC2)cc1=O | -2 | 11 | 15 | i | x | -2 | 3 | 1
COc1ccc(NC(=O)c2ccc(N3C(=O)C4CC=C(C)CC4C3=O)cc2)c(OC)c1 (stereo not drawn) | -7 | -2 | -13 | i | 7 | -2 | 1 | 7
O=C(Cn1c(=O)c2cccn2c2ccccc21)Nc1cc(F)ccc1F | 3 | -5 | 0 | i | -15 | -2 | 7 | -1
O=C(NCCN1C(=O)S/C(=C/c2cccnc2)C1=O)C1CC(=O)N(Cc2ccccc2)C1 (stereo not drawn) | -4 | 47 | 0 | i | x | -5 | -4 | 8
COC(CNC(=O)c1ccc2c(c1)nc(C)n2-c1cc(C)cc(C)c1)OC | 0 | -15 | -14 | i | -18 | 0 | 2 | 5
CC1=C(C(=O)N2CCCCC2)C(c2cccs2)C2=C(CCCC2=O)N1 (stereo not drawn) | -8 | -9 | -12 | i | -14 | 0 | 0 | x

An excerpt from above in order of count of non-hydrogen atoms, high to low.
SMILES | eIF4H inh | PABP FP inh | CSC inhib | Rce1 inhib | Yeast UUG start | MT1-MMP act inh | MT1-MMP act inh RFP | Env fusion inh | others
COc1ccc(NC(=O)c2ccc(N3C(=O)C4CC=C(C)CC4C3=O)cc2)c(OC)c1 (stereo not drawn) | -7 | -2 | -13 | i | 7 | -2 | 1 | 7
CCn1c(SCC(=O)NCCc2ccccc2)nc2c([nH]c3ccccc32)c1=O | -9 | 1 | 19 | i | -15 | -6 | -4 | 67*
O=C(c1cccc(F)c1)N1CCN(Cc2c[nH]c3ccccc23)CC1 | -1 | 8 | 11 | i | -14 | 2 | 9 | x

(list continues)
SMILES | eIF4H inh | PABP FP inh | CSC inhib | Rce1 inhib | Yeast UUG start | MT1-MMP act inh | MT1-MMP act inh RFP | Env fusion inh | others
Cc1ccsc1C(=O)OCc1cc(=O)n2ccsc2n1 | x | x | x | x | -15 | -5 | 3 | -95
COc1ccc(/C=C(\C#N)C(=O)OCC(=O)NCc2ccccc2OC)cc1 | x | x | 10 | i | x | 3 | 3 | -2
Oc1ccc(Br)cc1/C=N/n1c(COc2ccccc2)n[nH]c1=S | -2 | 0 | 1 | i | -20 | 5 | 2 | 2
Nc1cccc(Nc2nc(OC(C(F)(F)F)C(F)(F)F)nc(OC(C(F)(F)F)C(F)(F)F)n2)c1 | 2 | 2 | -3 | i | x | -6 | -9 | x
Cc1ccc(CSCC(=O)NCCc2ccccc2)cc1 | -11 | 0 | -11 | i | 4 | 3 | 1 | 9
CCCCOC(=O)c1cc(C)nc2ccc(Br)cc12 | -7 | -14 | 8 | i | -3 | -2 | -3 | x
O=C(C1CCN(S(=O)(=O)N2CCC3(CC2)OCCO3)CC1)N1CCN(Cc2ccccc2)CC1 | -4 | 1 | -10 | i | -10 | 1 | -1 | x
Cc1cc(C)cc(NC(=O)OCCN2CCN(Cc3ccccc3)CCC2=O)c1 | 6 | 6 | -17 | i | -17 | -2 | -1 | 5
CCCn1nnnc1NCc1ccc(N2CCCC2)cc1 | 2 | 2 | -4 | i | -13 | 2 | 1 | -60
CN(CC(=O)Nc1nc2ccccc2s1)S(=O)(=O)c1ccc(Br)cc1 | -1 | 1 | 4 | i | -12 | -1 | -1 | -50
CCOC(=O)C1CCN(C(c2ccc(OC)c(OC)c2)c2sc3nc(C)nn3c2O)CC1 (stereo not drawn) | -2 | -19 | -7 | i | -2 | 2 | 7 | -15

Assay outcomes from PubChem.

Not all compounds are listed, so the mix of outcomes need not match the whole.
